HSD17B inhib: blocks hydroxysteroid 17-beta dehydrogenase activity; Potency, µM (highest dose often 57.1 µM), for the others: at the highest dose activity change, negative = inhibition, most hits filed as inhibitors; Q99714; recombinant HSD17B10, NADH fluorescence kinetic; many of its hits are not listed in these tables; AID 893; actives 7.6% (n = 75,000); active = well fitted inhibition curve with a large enough effect; inconclusive = small, poorly fitted or top-dose-only effect; inactive = no such curve, though single readings can be large or run the other way;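 also: the protocol describes HADH2 (HSD17B10) and not the HSD17B4 of the title; nearly all actives have a fitted effect of over 70% in size; most hits overshoot -100% by far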
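20 nM HADH2, pH 9.0 Tris/Tween; cpd preinc 15 min RT; start w/ 1 mM NAD+ + 90 uM b-hydroxybutyryl-CoA; kinetic fluor ex360/em450 q30s x 4 min; delta last-first.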
Starred values were filed as active, the others as inactive; ? = inconclusive; & = joins results of further samples; [ ] = another dose, or the depositor's remark. % is scaled to controls: 0 for no effect and ±100 for the full control effect; potency is read from the fitted curve at half-maximal effect. This is a subset, so the mix of outcomes need not match the whole.

SMILES	HSD17B inhib
Cc1ccc(Cn2nnc3c(=O)n(CC(=O)N4CCCCC4)cnc32)cc1	5.8%
O=C(CCCn1c(=S)[nH]c2cc3c(cc2c1=O)OCO3)N1CCN(c2ncccn2)CC1	-3.3%
O=S(=O)(NCCc1ccccc1F)c1cccc(S(=O)(=O)N2CCOCC2)c1	-1.6%
CC(=O)c1cccc(NC(=O)CN2C(=O)C3C4C=CC(C4)C3C2=O)c1 (stereo not drawn)	-17.8%
CC(=O)Oc1ccc(/C=C/C(=O)CC2OC(Oc3cc(OC(C)=O)c4c(c3)O[C@@H](c3ccc(OC(C)=O)cc3)CC4=O)C(OC(C)=O)C(OC(C)=O)C2OC(C)=O)cc1 (stereo partly drawn)	-1.3%
O=C(O)c1ccc(C(=O)c2ccc3c(c2)C(=O)N(Cc2ccco2)C3=O)cc1	-19.4%
O=c1oc(-c2cccc(S(=O)(=O)N3CCOCC3)c2)nc2ccccc12	-0.1%
COc1cccc(/C=C2\N=C(SC)SC2=O)c1OC	-8.4%
O=C1CC(c2ccco2)=Nc2ccccc2N1	-17.4%
CC1=C(C)NC(=S)SC1	-1.1%
CCCc1ccccc1OCCNC(C)=O	9.0%
CCn1c(SCC(=O)N2CCN(c3ccccc3)CC2)nnc1-c1cc2cc(Cl)ccc2o1	8.3%
CC1=C(C#N)C(=O)N(C)C(C)(C)C1	-2.5%
COc1cc(-c2nnc(SCC(=O)OC3CCCCC3)o2)cc(OC)c1OC	-7.8%
Cc1cc(NC(=O)CCC(=O)N(c2ccccc2)C(C(=O)NC2CCCC2)c2cccs2)no1 (stereo not drawn)	1.6%
Cc1cccc(NC(=O)CCn2nc(C)cc2C)c1	1.9%
O=C(COc1ccc(Cl)cc1)OCC(=O)N1CCCCCC1	7.1%
S=c1[nH]ncn1/N=C/c1ccccc1	-13.4%
Cc1ccc(CCSCC(=O)O)cn1	4.0%
CCCN1CCC(N2CCN(c3cccc(C(F)(F)F)c3)CC2)CC1	-0.1%
CC(NC(=O)c1ccccc1NS(C)(=O)=O)c1ccccc1 (stereo not drawn)	25.1µM*
CC(C)CCN1C(=O)CCC1(C)C(=O)NC1CCCCCC1 (stereo not drawn)	7.3%
COc1ccc(S(=O)(=O)N(Cc2cccs2)C2CCCC2)cc1	0.4%
CCOC(=O)C1CCN(C(=O)c2cccc(C(=O)N3CCC(C(=O)OCC)CC3)c2)CC1	9.5%
Cc1cc(C(=O)NCc2ccc(S(N)(=O)=O)cc2)c(C)o1	4.1%

Shown as labelled records: part of the list above
Structure: S=c1[nH]ncn1/N=C/c1ccccc1
  HSD17B inhib: -13.4%
Structure: Cc1ccc(CCSCC(=O)O)cn1
  HSD17B inhib: 4.0%
Structure: CCCN1CCC(N2CCN(c3cccc(C(F)(F)F)c3)CC2)CC1
  HSD17B inhib: -0.1%
Structure: CC(NC(=O)c1ccccc1NS(C)(=O)=O)c1ccccc1 (stereo not drawn)
  HSD17B inhib: 25.1µM*

(further entries)
SMILES	HSD17B inhib
CC(C)[C@H](CO)Nc1nc(Nc2ccc(C(=O)O)c(Cl)c2)c2ncn(C(C)C)c2n1	-20.5%
O=C(NCc1ccco1)c1cccc2ccccc12	9.2%
COc1ccccc1N1CCN(CCCCN2C(=O)c3ccccc3C2=O)CC1	-4.8%&-6.1%
CCCCC(=O)Nc1sc2c(c1C(N)=O)CCC2	-29.5%
N#Cc1c(NC(=O)c2cc(-n3cnnc3)ccc2Cl)sc2c1CCCC2	3.6%
Cn1c(SCc2ccc(Br)cc2)nnc1-c1cccs1	-17.7%
CC(=O)N1CCN(S(=O)(=O)c2cccc(C(=O)Nc3ccc4c(c3)CCC4)c2)CC1	4.4%
COc1ccc(C(=O)Nn2cc3c(c2-c2ccccc2)c(=O)n(C)c(=O)n3C)cc1	-11.7%
CC(Cc1ccccc1)C(=O)NCc1ccncc1 (stereo not drawn)	-2.0%
CC(NC(=O)CN1CCN(Cc2ccc(Cl)cc2)C1=O)c1ccc2c(c1)OCCO2 (stereo not drawn)	4.8%
O=C(CN1CCOc2ccccc21)NCc1cccs1	0.9%
O=C(CCn1c(=O)oc2ccccc21)NCc1ccc2c(c1)OCO2	2.5%
COC(=O)C/C=C\[C@@H](C)[C@@H](/C=N\O[C@@H](C)c1cn([C@H]2COC[C@H]2O)nn1)OC	-0.7%[11.4 µM]
COc1ccccc1N1CCN(CC(=O)Nc2cc(F)ccc2C)CC1	4.3%
COc1ccc(CC2C(=O)OC(C)(C)OC2=O)cc1	-1.0%
Cc1c(C#N)c2ncnc(N)c2n1-c1ccccc1	12.2%
O=C(/C=N/O)Nc1cccnc1	-2.1%
CN(C)c1ccc(N/C=C/C(=O)c2ccc(F)cc2)cc1	-4.0%
Cc1cc(N)c2cc(NC(=O)Nc3ccc4nc(C)cc(N)c4c3)ccc2n1	-29.6%[11.4 µM]
COc1ccccc1C(=O)NCCc1nc2ccccc2n1C	-0.8%
Cc1cc(C)cc(N(C(=O)Cn2nnc3ccccc32)C(C(=O)NCc2ccco2)c2ccncc2)c1 (stereo not drawn)	-4.3%
NCCCc1c(-c2ccccc2)nc(N)[nH]c1=O	2.8%[11.4 µM]
Cc1ccc(S(=O)(=O)c2nc(-c3ccco3)oc2SCC(=O)NCC2CCCO2)cc1 (stereo not drawn)	-20.1%
CCc1cc2c(-c3ccccc3)cc(=O)oc2c(CN2CCOCC2)c1O	5.0%
CCOc1ccc(N2C(=O)CC(N3CCOCC3)C2=O)cc1 (stereo not drawn)	-2.9%
Other structures follow.
SMILES	HSD17B inhib
COc1cc2[nH]c(=O)c(C(=O)NCCCN3CCCCC3)c(O)c2cc1OC	25.1µM*
CCCNC(=O)C(Cc1ccccc1)NS(=O)(=O)c1ccc2c(c1)CCC(=O)N2 (stereo not drawn)	4.0%
Cc1nc2nc[nH]c2cc1Br	3.9%
O=C(O)CC1C(=O)NCCN1CCCc1ccccc1 (stereo not drawn)	3.8%
COc1ccccc1-n1c(SCC(=O)NC(C)(C)C)nnc1-c1ccco1	12.2%
CCOC(=O)N/N=C1/C[C@@H](O)[C@@H](O)[C@@H]2[C@@H]3C(=O)N(C(C)(C)C)C(=O)[C@H]3CC[C@@H]12	1.3%[11.4 µM]
Cc1ccc2cc(C(c3nnnn3C3CCCC3)N3CCN(c4ccc(F)cc4)CC3)c(=O)[nH]c2c1 (stereo not drawn)	?
COC(=O)[C@@H]1CC[C@H](C)[C@@H](c2ccc(C)cc2)N1C(=O)c1ccc(/C=N\OC[C@@H](O)COCc2ccco2)cc1	-1.9%[11.4 µM]
COCC(=O)N1CCC[C@@]2(CCN(Cc3ccccc3)C2)C1	7.2%
CCN(C(=O)COC(=O)c1c(-c2ccccc2)noc1C)C1CCS(=O)(=O)C1 (stereo not drawn)	9.9%
COc1ccc2cc(C(c3nnnn3Cc3ccccc3)N3CCCCCC3)c(=O)[nH]c2c1 (stereo not drawn)	-6.0%
Cc1ccn2cc(-c3nonc3C)cc2c1	-7.7%
Oc1ccc2[nH]cnc2c1CN1CCCCC1	-6.5%
Cc1cc(NS(=O)(=O)c2ccc(NC(=O)c3cnc4scc(C)n4c3=O)cc2)nc(C)n1	?
COc1ccc(C)cc1NC(=O)CN1CCN(S(=O)(=O)c2ccc(Cl)cc2)CC1	10.9%
COC(=O)C(C(=O)OC)=C(/C=C/C=C/N(C)C)N(C)C	-20.8%
CCCCn1c(SCC(=O)Nc2nnc(CC)s2)nc2c1c(=O)n(C)c(=O)n2C	-7.0%
N#CCCSC(=S)[C@H]1CCCC1=N	7.5%[11.4 µM]
Cc1ccc(C(=O)NCCN2CCOCC2)cc1Cl	4.6%
CSc1nc(N)c2ncn([C@H]3O[C@H](COP(=O)(O)OP(=O)(O)OP(=O)(O)O)[C@@H](O)[C@@H]3O)c2n1	-2.1%
CC1=C(C(=O)NC2CCC(C)CC2)C2(CCC(C)CC2)OC1=O (stereo not drawn)	1.6%
O=C(NCCCN1CCCC1)c1cccc(N2CCCC2=O)c1	8.7%
CCN(c1cccc(C)c1)S(=O)(=O)c1cccc(C(=O)O)c1	-1.7%
CCCC(C(=O)NC1CCCC1)N(C(=O)Cn1nnc(-c2ccc(C)o2)n1)C1CCCC1 (stereo not drawn)	4.8%
CCCc1cc(=O)[nH]c(SCC(=O)CSc2nc(CCC)cc(=O)[nH]2)n1	-15.4%
Other records follow:
SMILES	HSD17B inhib
COC(=O)Cn1cnc2c(nnn2-c2ccc(C)cc2)c1=O	-5.0%
O=C(CSc1nc2ccccc2c(=O)n1Cc1ccco1)NCc1ccccc1	5.4%
Cc1nnc(NC2=NCCCCC2)o1	0.0%
O=C(c1ccc2c3c(cccc13)CC2)N1CCOCC1	-8.4%
Cc1ccc(S(=O)(=O)N2CCN(C(=O)CSc3nnc(C)c(=O)[nH]3)CC2)cc1	-18.2%
O=C(NCCC1=CCCCC1)C1CC(=O)N(C2CCCCCC2)C1 (stereo not drawn)	1.4%
CC(=O)c1cc2c(cc1NC(=O)CN1CCOCC1)OCO2	-20.5%
Cc1cccc(CNc2nc(-c3cccnc3)nc3ccccc23)c1	11.2%
Cc1cc(NC(=O)c2sccc2C)n(-c2cccc(Cl)c2)n1	3.2%
c1ccc(-n2nnnc2Oc2ccc(-n3ccnc3)cc2)cc1	6.1%
CCC1CCCCN1CCNC(=O)CNS(=O)(=O)c1ccc2nc(C)sc2c1 (stereo not drawn)	8.6%
Cc1ccc(-n2ncc3c(=O)n(CC(=O)NC4CCCCC4)cnc32)cc1	-27.1%
O=C(Nc1ccc2c(c1)OCCO2)c1cc(-n2cnnc2)ccc1Cl	12.8%
CSCC[C@H](NC(=O)NCc1cccs1)C(=O)O	-2.7%
O=C1CC(c2ccc(Cl)cc2)n2nc(N3C(=O)CCC3=O)nc2N1 (stereo not drawn)	-2.4%
CCCn1c(-c2ccc(F)cc2)nc2c(NCCCN3CCOCC3)nc(C)nc21	20µM*
CC1(C)CC(=O)C2=C(C1)OC(N)=C(C#N)C2c1ccc(OC(=O)N2CCOCC2)cc1 (stereo not drawn)	-12.2%
O=C(Nc1cccc(Cl)c1)Nn1cnnc1	2.1%[11.4 µM]
NC(=O)C/C=C\CC(N)=O	10.4%[11.4 µM]
CC1CCC(C(C)C)[C@H](OC(=O)c2ccccc2)C1 (stereo partly drawn)	2.8%
C(=N\n1cnnc1)/c1ccc(OCc2ccccc2)cc1	0.2%
CCCS(=O)(=O)N1CCC(C(=O)NC2CCC(C)CC2)CC1 (stereo not drawn)	5.9%
CCNC(=O)CN(c1ccc(C)cc1)S(=O)(=O)c1ccc(SC)cc1	-10.8%
O=C(O)Cc1c(O)ccc2ccccc12	3.98µM*
Cc1ccc(CNC(=O)CSc2n[nH]c(N)n2)cc1	14.2%

An excerpt of these results, bar-delimited:
canonical_smiles | HSD17B inhib
CCCn1c(-c2ccc(F)cc2)nc2c(NCCCN3CCOCC3)nc(C)nc21 | 20µM*
Cc1cc(NC(=O)c2sccc2C)n(-c2cccc(Cl)c2)n1 | 3.2%
Cc1ccc(S(=O)(=O)N2CCN(C(=O)CSc3nnc(C)c(=O)[nH]3)CC2)cc1 | -18.2%
CC1(C)CC(=O)C2=C(C1)OC(N)=C(C#N)C2c1ccc(OC(=O)N2CCOCC2)cc1 (stereo not drawn) | -12.2%
CCNC(=O)CN(c1ccc(C)cc1)S(=O)(=O)c1ccc(SC)cc1 | -10.8%
CSCC[C@H](NC(=O)NCc1cccs1)C(=O)O | -2.7%
c1ccc(-n2nnnc2Oc2ccc(-n3ccnc3)cc2)cc1 | 6.1%

(next part)
SMILES	HSD17B inhib
O=C(c1noc2c1CCCCC2)N1CCOCC1	1.5%
COc1ccc(NC(=O)c2nc3nc(C)cc(C(F)F)n3n2)cc1OC	-0.6%
O=c1c2c(-c3ccco3)csc2nc(SCc2cn3cccnc3n2)n1-c1ccccc1	?
Cc1noc(NS(=O)(=O)c2ccc(N3C(=O)c4ccccc4C3=O)cc2)c1C	-8.5%
O=C(CCCn1c(SCC(=O)NC2CCCC2)nc2ccccc2c1=O)NCC1CCCO1 (stereo not drawn)	13.1%
COc1ccc2c(=O)ccoc2c1	-26.8%
COc1ccc(-c2coc3cc(O)ccc3c2=O)c(OC)c1	25.1µM*
CN(C)C(=O)c1nnc(Cc2ccc(Cl)cc2)o1	2.8%
CCCn1c(C)nc2c(NC3CCN(Cc4ccccc4)CC3)nc(C)nc21	8.0%
COc1ccc(N(C(=O)c2ccco2)S(=O)(=O)c2cccs2)cc1	-4.8%
O=C(NCc1ccco1)c1cc(-c2ccccn2)nc2ccccc12	?
NCCNC(=O)c1ncsc1-c1cccc(F)c1	-1.1%
COC(=O)c1c(-c2ccc(F)cc2)noc1N	17.9%
CCOC(=O)C1(N(CC)CC)Sc2cc(C)ccc2NC1=O (stereo not drawn)	-23.6%
Cc1[nH]c2ccccc2c1C(=O)CSCC(=O)O	0.2%
Nc1ncnc2c1ncn2CCN1CCOCC1	5.1%
Cc1ccc(NC(=O)CNS(=O)(=O)c2cccs2)cc1F	0.7%
CCOC(=O)Cn1c(=O)n(Cc2ccco2)c(=O)c2ccc(C(=O)NCCc3ccccc3)cc21	-18.2%
CC(C)CO/N=C1/C[C@@H](O)[C@@H](O)[C@@H]2[C@H]3C(=O)N(c4ccc(F)cc4F)C(=O)[C@@H]3CC[C@@H]12	3.5%[11.4 µM]
C=CCN1C(=O)/C(=N/n2cnnc2)c2ccccc21	-13.3%
Cn1c(-c2ccc3nc(N)sc3c2)nc2cc(N)ccc21	25.1µM*
Cc1ccc(S(=O)(=O)N2CCOCC2)cc1C(=O)N1CCOCC1	-5.6%
Cn1cccc1Cc1nnc(SCC(=O)Nc2ccc(F)cc2F)n1-c1ccc(F)cc1	13.8%
c1ccc(Nc2nc3ccccc3[nH]2)nc1	-2.6%
CC(C)C(=O)Nc1ccc2c(c1)nc1n2CCSC1	-17.6%

Screening data from PubChem.
